# BJeLR lethal = MLPCN primary cell-based screen for lethality selective to Ras in HRASV12 cells. hit rate 0.17% among 300,000. inhibition, % (no concentration beside the values). BJeLR (HRASV12) viability, CellTiter-Glo ATP luminescence, 48 h; reference of the scale not given here;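 active = replicate mean above 50%; inconclusive = above 50% but judged a plate artefact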;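 note: 50 nL library stock added to about 25 µL; numbers are from one replicate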
# ugtP null kill = growth inhibition of ugtP-null S. aureus, primary screen, RN4220 ugtP deletion, OD600. AID 1259309, 2017. 16 h; some inactives read as strong as hits. growth inhibition, % (concentration not given with the values). hit rate 0.54% among 330,000;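 active = z-score under -3 and OD600 up to 0.15 on both plates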;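 note: plate controls were untreated wells for no effect and antibiotic for full effect; wells of about 80 µL received 100 nL stock; the first replicate is given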
# Autofluor counter = compound fluorescence in toxin protease inhibitor counterscreen | compound autofluorescence counterscreen, microsphere flow cytometry; active compounds read high | fluorescence intensity (no concentration beside the values) | hit rate 3.1% among 360,000 | AID 624483;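 active = at least 3 SD above the mean of all compounds, about 16000 in these data; inconclusive = too few beads counted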;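 note: 100 nL of 1 mM stock went into each well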
# PrP UTR inh = inhibition of PrP 5' UTR reporter expression; inhibition, % (concentration not given with the values); AID 488862, 2010; hit rate 0.35% among 340,000; cell-based PrP 5' UTR mRNA reporter, plate reader;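 active = every replicate at 50% or more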;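 note: 0 = median of the neutral control wells; tested in H4 reporter cells; numbers are from one replicate; inactives centre near -14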
# Mtb hypoxia inh = PubChem AID 1159583 | M. tuberculosis hypoxia-regulated fluorescent reporter, fluorescence | fluorescence inhibition, % (no concentration beside the values) | hit rate 0.1% among 300,000;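 active = 35 to 45% if threefold the growth effect, above 45% if 1.5-fold the growth effect; inactive = the rest, general growth blockers included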;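 note: wells of about 50 µL received 100 nL stock; 0% = vehicle wells and 100% = reference inhibitor wells; whole bacteria with a GFP reporter of the hypoxia response; strong numbers were not always called active; many hits fall short of the cut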
# RN4220 kill = growth inhibition of S. aureus RN4220, primary screen, OD600. hit rate 0.33% among 330,000. 16 h. inhibition, % (no concentration beside the values);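 active = z-score of -3 or lower and OD600 up to 0.18 on both plates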;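 note: plate controls were untreated cells for no effect and reference antibiotic for full effect; stock transfer was 100 nL into about 80 µL; one replicate is shown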
# Mtb hypoxia inh growth = further read-out of Mtb hypoxia inh, marked with its call; growth inhibition, %; measured here: M. tuberculosis growth (absorbance);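 0% = vehicle and 100% = reference antibiotic; read after six days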
# * = called active by the depositor; ? = inconclusive; . = not tested or not shown. Rows are unselected; any-hit rate near 3.9%.
SMILES,BJeLR lethal,ugtP null kill,Autofluor counter,PrP UTR inh,Mtb hypoxia inh,Mtb hypoxia inh growth,RN4220 kill
O=C(CCCn1c(=S)[nH]c2ccccc2c1=O)NCc1ccco1,0.7,3.8,3281,-2.7,1.3,5.7,-0.2
N#C/C(=C\c1ccc([N+](=O)[O-])o1)c1nc2ccccc2[nH]1,43.9,100.1*,.,.,.,.,99.9*
C/C(=N\Nc1ccccn1)c1ccc(C(C)C)cc1,-10.0,.,3362,-58.8,.,.,.
COc1ccc(/C=C2\SC(=S)N(CCC(=O)N(CCO)c3ccccc3)C2=O)cc1OC,1.0,-3.1,2927,1.1,-11.8,-2.0,0.6
O=C1CCN(CCc2ccccc2)CCN1C(CSc1ccccc1)Cc1ccccc1 (stereo unspecified),.,-2.1,.,.,-7.3,5.9,-3.6
CCCn1nc(C(=O)NNC(=O)CCOc2ccccc2OCC)c2ccccc2c1=O,2.0,11.6,5460,-17.8,10.6,6.4,3.3
COc1ccc(CN(C(=O)c2ccc(-c3ccccc3)[nH]2)C(C(=O)NC(C)(C)C)c2ccncc2)cc1 (stereo unspecified),-0.1,13.5,4687,-47.5,-14.7,14.2,-3.6
CCOc1cc(CNc2ccc(O)cc2)cc(Br)c1OCc1ccccc1F,0.6,41.1,2631,7.9,16.9,8.0,-20.1
Cc1cccc(NC(=S)NC(=O)c2ccc(Br)o2)c1C,8.9,8.6,4286,-18.4,-0.6,-3.3,3.9
O=C(CCNS(=O)(=O)c1ccc(Cl)cc1)N1CCC2(O)CCCCC2C1 (stereo unspecified),2.6,1.2,3649,-7.8,.,.,1.0
CCOC(=O)c1cnc(SCC#N)nc1N,0.6,-9.6,4786,-17.4,-10.0,6.6,-2.7
Cc1nn(C)cc1C=NNC(=O)CSc1ccccn1,.,1.5,.,.,13.7,9.5,1.7
Cc1ccc(N=CC2=C(O)CC(c3ccco3)CC2=O)cc1 (stereo unspecified),-0.9,0.5,17259*,-18.7,3.9,11.3,4.0
CCCCn1c(=O)c(CCC(=O)O)nc2ccccc21,17.8,0.3,3750,-9.7,-5.1,10.8,0.1
CC(=O)NC(=O)c1nnn(Cc2ccccc2)c1NC(C)=O,1.6,0.4,10218,-10.2,1.5,6.1,-1.9
Cc1ccc(CN(C)C(=O)COC(=O)CSc2ccc(C(N)=O)cc2[N+](=O)[O-])cc1,-1.1,.,6019,6.2,.,.,.
COc1ccc(CC(=O)Nc2cccc(/C(C)=N/NC(=O)c3cccc([N+](=O)[O-])c3)c2)cc1,-3.0,.,3393,-0.4,.,.,.
CC(C)(C)NC(=O)NC(=O)COC(=O)Cc1c(Cl)cccc1Cl,9.3,2.2,4686,-0.9,10.9,5.2,13.7
CNC(C)C#Cc1ccc2sc3cccc(OC)c3c(=O)c2c1 (stereo unspecified),-4.4,.,3948,-34.1,.,.,.
N#Cc1ccc(C2=CC(=O)CC(c3ccc(Cl)cc3)C2)cc1 (stereo unspecified),.,4.1,.,.,8.3,9.1,1.4
CC(Oc1ccc(Br)cc1)C(=O)Nc1cc(Cl)ccc1N1CCN(C)CC1 (stereo unspecified),8.4,-7.7,5912,-6.8,8.5,13.3,-2.2
CC(=O)N1CCN(C(=S)NC(=O)c2ccc(F)cc2)CC1,.,2.4,3153,-12.8,-0.4,-1.3,2.4
COCCCN(C)C1CCN(C(=O)Nc2ccc(F)cc2)CC1,0.2,-4.8,6790,-12.6,-14.4,-7.1,-1.6
O=C(NCCCn1ccnc1)/C(=C\c1ccccc1Cl)NC(=O)c1ccccc1,1.1,12.2,4956,-2.3,-0.4,-4.1,2.5
O=C(Nc1cc([N+](=O)[O-])ccc1F)c1ccc2c(c1)OCCO2,4.8,-6.5,2467,-24.9,8.3,0.6,3.2
Cc1c(CCC(=O)O)c(=O)oc2c(C)c(OCc3ccccc3Cl)ccc12,-0.1,-3.3,3230,-11.1,11.6,4.7,8.9
CC(NC(=O)c1ccnc(C(C)(C)C)c1)c1ccccc1 (stereo unspecified),.,10.4,4102,-8.8,1.4,-3.6,6.1
Clc1ccc(CN2CCc3c([nH]c4ccccc34)C2)cc1Cl,5.0,.,4438,-19.2,.,.,.
Cc1ccc(C)c(NC(=O)CN(C)C(=O)c2cccc(-n3cccc3)c2)c1,4.4,1.3,?,-9.5,0.1,-4.4,3.1
Cc1cc(NC(=O)CCCn2nc([N+](=O)[O-])c(Br)c2C)no1,18.5,10.0,4410,-8.9,3.4,7.8,3.8

# The closing three entries of the part before are carried over, then new ones follow.
SMILES,BJeLR lethal,ugtP null kill,Autofluor counter,PrP UTR inh,Mtb hypoxia inh,Mtb hypoxia inh growth,RN4220 kill
Clc1ccc(CN2CCc3c([nH]c4ccccc34)C2)cc1Cl,5.0,.,4438,-19.2,.,.,.
Cc1ccc(C)c(NC(=O)CN(C)C(=O)c2cccc(-n3cccc3)c2)c1,4.4,1.3,?,-9.5,0.1,-4.4,3.1
Cc1cc(NC(=O)CCCn2nc([N+](=O)[O-])c(Br)c2C)no1,18.5,10.0,4410,-8.9,3.4,7.8,3.8
COc1cccc(C(c2nnnn2Cc2ccco2)N2CCN(c3cccc(C)c3C)CC2)c1OC (stereo unspecified),2.0,1.7,3874,-1.5,.,.,1.5
CCN1CC(CN(C)Cc2nc(-c3ccc(Cl)cc3)no2)CC1=O (stereo unspecified),3.4,2.8,4367,-17.1,14.5,6.4,2.2
Cc1ccnc(NC(=O)c2ccc3c(c2)C(=O)N(CCC(C)C)C3=O)c1,0.9,4.9,5815,-29.5,4.7,11.3,3.1
Nc1c(C(=O)NCc2ccc(Cl)cc2)sc2nc3c(c(C(F)(F)F)c12)CCC3,8.7,-0.3,15715,-18.2,0.6,0.0,-1.8
COc1ccccc1NS(=O)(=O)c1cccc(NC(=O)c2[nH]c(C)c(C(C)=O)c2C)c1,3.7,15.0,3475,-4.4,11.5,8.3,3.7
COc1ccc(CNC(=O)C2CCN(C(=O)c3ccc(F)cc3)CC2)cc1OC,.,6.7,3523,-11.5,19.1,43.8,5.1
O=C(NC(Cc1ccccc1)C(=O)CCl)OCc1ccccc1 (stereo unspecified),.,99.8*,.,.,-7.0,4.5,100.5*
CCN(CC)C(=O)Cn1cc(S(=O)(=O)CC(=O)NCc2ccc(F)cc2)c2ccccc21,0.0,-0.6,5716,-13.2,1.4,9.3,1.2
CCOC(=O)CC1C(=O)NCCN1Cc1cccc(C(F)(F)F)c1 (stereo unspecified),-10.2,-0.5,5816,-7.3,-1.1,5.2,1.7
C=C1CCN(C(Cc2ccccc2)C(=O)Nc2ccc(OC)cc2)S(=O)(=O)c2ccccc21 (stereo unspecified),.,7.4,.,.,8.9,9.9,6.4
COc1cc(C)ccc1OCCCOc1cc(C)ccc1Cl,-7.7,10.1,2020,-4.0,.,.,4.6
O=C(Cn1c(COc2ccc(Cl)cc2)nc2ccccc21)NCC(F)(F)F,-3.4,1.1,2959,-15.5,3.0,7.9,2.4
CC(=O)Nc1sc(C)c(C)c1C(=O)OCC(=O)Nc1cc(S(=O)(=O)N2CCCCC2)ccc1Cl,-2.0,11.8,7007,1.3,4.1,7.0,2.4
COc1ccccc1Nc1c([N+](=O)[O-])cc(C)cc1[N+](=O)[O-],4.6,14.1,2691,-16.1,10.2,3.2,5.4
CCC[N+](CC#Cc1ccccc1)(CCC)CC(=O)OC,-6.5,1.8,1985,-19.6,-3.6,1.0,2.7

# Among those listed so far, these contain an aryl thioether with sulfur outside any ring:
SMILES,BJeLR lethal,ugtP null kill,Autofluor counter,PrP UTR inh,Mtb hypoxia inh,Mtb hypoxia inh growth,RN4220 kill
O=C1CCN(CCc2ccccc2)CCN1C(CSc1ccccc1)Cc1ccccc1 (stereo unspecified),.,-2.1,.,.,-7.3,5.9,-3.6
CCOC(=O)c1cnc(SCC#N)nc1N,0.6,-9.6,4786,-17.4,-10.0,6.6,-2.7
Cc1nn(C)cc1C=NNC(=O)CSc1ccccn1,.,1.5,.,.,13.7,9.5,1.7
Cc1ccc(CN(C)C(=O)COC(=O)CSc2ccc(C(N)=O)cc2[N+](=O)[O-])cc1,-1.1,.,6019,6.2,.,.,.

# (more compounds)
SMILES,BJeLR lethal,ugtP null kill,Autofluor counter,PrP UTR inh,Mtb hypoxia inh,Mtb hypoxia inh growth,RN4220 kill
CCCCCCC(O)(c1ccccc1)C(CN1CCOCC1)c1ccccc1 (stereo unspecified),1.8,37.0,3742,-4.2,2.7,2.3,-10.9
Cn1c(NC(=O)c2ccc(Cl)cc2)c(-c2ccccn2)c(=O)c2ccccc21,9.0,-4.9,10549,.,-9.7,1.9,-2.7
CCn1c(Cc2cccn2C)nnc1SCC(=O)c1ccc(C)cc1,1.1,-29.9,3682,-15.6,-5.6,-2.8,3.2
COc1ccc2c(c1)c(=O)oc1cc3occ(C(C)(C)C)c3cc12,1.1,-8.5,?,3.4,-6.7,3.7,5.7
COCCn1c(=O)[nH]c(=O)c2cc(C(=O)c3cc(Cl)ccc3O)cnc21,1.4,6.4,3315,-9.0,-8.0,3.3,8.2
CC(=O)C1=C(O)C(=O)N(CCCn2ccnc2)C1c1ccc(Br)cc1 (stereo unspecified),0.2,-3.0,2800,-21.8,1.6,9.6,4.9
CC(C)c1ccc(S(=O)(=O)N2CCN(CC(=O)Nc3ccc(Cl)cc3F)CC2)cc1,.,-5.3,5874,-1.6,-3.0,6.2,-0.5
CCOC(=O)CCn1c(=O)c2c(nc(Br)n2Cc2ccccc2)n(C)c1=O,-0.4,2.0,2582,-7.9,9.4,3.8,-5.9
O=C(c1ccccc1)N(Nc1ccccc1)c1ccccc1,2.9,2.8,2045,-1.0,-1.1,7.4,-0.2
COc1ccc(S(=O)(=O)c2ccc(OC)c(OC)c2)cc1OC,-11.2,-5.4,2768,-13.7,.,.,0.2
O=c1cc(-c2ccccc2)[nH]c2ccc(F)cc12,10.9,-4.2,3417,44.6,9.0,0.9,9.4
CCc1ccc(-c2nc3ccc(Br)cc3c(C(=O)O)c2C)s1,1.5,-7.2,3022,-25.7,8.5,5.6,9.7
CCCCNC(=O)CCN1N=C(c2ccccc2)CCC1=O,11.5,11.2,4582,4.6,12.0,0.7,4.5
O=C(NNC(=O)c1cccnc1)NC1CCCCC1,0.0,1.6,4132,-14.4,13.2,5.5,4.8
COc1cc(CN2CCN(Cc3ccccc3C(F)(F)F)CC2)cc(OC)c1OC,-8.1,11.3,3555,-6.4,9.1,4.2,3.2
CCOc1ccc(S(=O)(=O)NCc2cccnc2)cc1C,4.2,7.9,4322,-20.1,23.3,36.4,2.4
Cc1ccc(S(=O)(=O)N(C)CC(=O)O/N=C(\N)c2ccc([N+](=O)[O-])cc2)cc1,1.2,-5.0,5955,-17.1,-4.8,1.7,5.6
CCCCN(CC)CCCNC(=O)c1cn(C)c2ccc(S(=O)(=O)N(C)C3CCCCC3)cc2c1=O,0.0,2.8,4122,-16.9,1.9,-10.2,11.0
Cc1cc(C)nc(N2CCN(C(=O)c3ccc(S(=O)(=O)N4CCCCCC4)cc3)CC2)n1,12.2,4.0,4060,-31.6,14.1,8.5,3.6
NC(=O)CC(NC(=O)Cc1ccc(Br)cc1)c1ccc(NC2CCCCCC2)c([N+](=O)[O-])c1 (stereo unspecified),-5.4,2.7,3375,-7.3,5.1,-5.7,-6.3
COC(=O)[C@@]12CCCCN1C(c1ccc(-c3cc(C(C)=O)cs3)cc1)C1C(=O)N(C)C(=O)C12 (stereo partly specified),.,4.2,.,.,-5.7,1.3,-1.5
Cc1cccc(NC(=O)COc2cccc3c2CCN(C)C3=O)c1,6.4,0.0,4678,-18.2,-4.0,12.5,-2.9
O=C(CSc1nc2[nH]ncc2c(=O)[nH]1)Nc1cccc([N+](=O)[O-])c1,-5.2,9.0,?,-13.2,1.7,12.8,-0.3
CN(C(=O)c1ccccc1Cl)c1ccccc1,0.2,1.8,7597,-8.8,7.8,-0.6,2.1
O=C1CN(C(=O)COC(=O)c2cc(S(=O)(=O)N3CCOCC3)ccc2Cl)c2ccccc2N1,-0.7,12.8,3431,-10.2,-8.5,4.3,5.9
O=C(Cc1ccc(Cl)cc1Cl)OCC(=O)c1ccc[nH]1,-3.7,-11.7,4138,-22.4,-3.0,-1.5,-4.8
CCS(=O)(=O)c1nc(S(=O)(=O)c2ccc(Cl)cc2)c(N2CCCC2)s1,-5.0,20.8,4637,-29.9,0.4,7.6,1.2
CC(C)(C)NC(=O)C(=O)NN=C1CCCCCC1,-6.5,2.3,4571,-10.5,8.6,3.4,5.9
CCN1CCN(S(=O)(=O)c2ccc(OC)c(NC(=O)c3ccccc3F)c2)CC1,2.8,5.7,?,-10.8,-9.1,0.5,3.8

# Compound activity from PubChem.
